HNF4A DNA FP: change in binding of human HNF4 alpha to DNA. P41235. HNF4a-FITC DNA binding, fluorescence polarization, 1 h. activity change, % at 10 µM. actives 0.3% (n = 360,000); in the data active = activity change above about 30%, passing the limit was not always enough;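 note: controls were the assay level and a saturating level of protein; the project sought stronger binding though the title names inhibitors; some compounds called inactive have numbers as strong as hits; positive values seem to mean higher polarization but the record does not say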
Target sequence (P41235 whole entry, looked up): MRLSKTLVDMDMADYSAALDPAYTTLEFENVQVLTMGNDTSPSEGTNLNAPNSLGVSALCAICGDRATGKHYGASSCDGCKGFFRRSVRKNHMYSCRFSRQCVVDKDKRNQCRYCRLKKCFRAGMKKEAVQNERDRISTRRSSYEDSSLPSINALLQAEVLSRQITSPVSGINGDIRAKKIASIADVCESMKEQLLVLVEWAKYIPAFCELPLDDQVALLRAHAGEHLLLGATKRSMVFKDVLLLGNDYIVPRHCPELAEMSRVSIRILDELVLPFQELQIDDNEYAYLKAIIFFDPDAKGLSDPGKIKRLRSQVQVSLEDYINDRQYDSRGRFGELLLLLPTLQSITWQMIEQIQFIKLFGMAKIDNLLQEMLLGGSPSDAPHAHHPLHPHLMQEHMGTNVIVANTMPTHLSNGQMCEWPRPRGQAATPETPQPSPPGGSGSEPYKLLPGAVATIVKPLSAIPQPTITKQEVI
Vif TR-FRET: HIV-1 Vif–A3G interaction blockers – biochemical, TR-FRET, GST-Vif 1-94, biotin-A3G peptide, dose response retest, primary screen (AID 1117319) | TR-FRET GST-Vif / biotin-A3G peptide binding; higher % means a stronger effect; test concentration not given here; strong numbers were not always called active | actives 0.57% (n = 260,000) | inhibition, %, or IC50 in µM where a hit was titrated;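 active = above the screen mean plus three standard deviations and confirmed in dose response; inconclusive = results disagree or hit not tested in dose response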;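 note: Vif residues 1-94 fused to GST binding biotinylated APOBEC3G peptide 110-148; 0% = full assay without inhibitor and 100% = GST in place of GST-Vif; retest series ran down from 100 µM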
A1 inh: inhibitors of the anti-apoptotic protein A1, read as caspase activation. caspase activation, % (test concentration not listed). MEF A1-2A-BIM cells, Caspase-Glo 3/7 luminescence, 3 h; percent of clofoctol response, vehicle zero. actives 0.066% (n = 330,000). AID 2462;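 active = over half of replicate activation scores above 10%, or exactly half above 10 with the replicate mean above 10; inconclusive = replicate mean below 10 yet half the replicates above 10; inactive = over half of replicates below 10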;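 note: wells of about 30 µL received 50 nL stock; many hits fall short of the cut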
Beta2AR agonist: activates human beta-2 adrenergic receptor causing internalization; P07550; Am2.2-beta2AR cells, FAP receptor internalization, flow cytometry; reference of the scale not given here; response, % (test concentration not listed); actives 0.43% (n = 340,000); AID 504454;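 active = response above a set limit, near 3 SD of response in nonfluorescent compounds, cut at about 42% in these data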;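 note: stock transfer was 100 nL into about 11 µL; a reference agonist was the positive control; negative values mostly stem from fluorescent compounds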
UCH37 inh: inhibitors of human deubiquitinating enzyme UCH37; Q9Y5K5; purified proteasome/UCH37, Ub-AMC cleavage fluorescence; inhibition, % (test concentration not listed); actives 0.33% (n = 330,000); AID 588478;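 active = mean of two replicates above 20%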;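 note: 0% = compound-free wells with enzyme and 100% = wells lacking proteasome; stock transfer was 100 nL into about 20 µL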
Target sequence (Q9Y5K5 whole entry, looked up): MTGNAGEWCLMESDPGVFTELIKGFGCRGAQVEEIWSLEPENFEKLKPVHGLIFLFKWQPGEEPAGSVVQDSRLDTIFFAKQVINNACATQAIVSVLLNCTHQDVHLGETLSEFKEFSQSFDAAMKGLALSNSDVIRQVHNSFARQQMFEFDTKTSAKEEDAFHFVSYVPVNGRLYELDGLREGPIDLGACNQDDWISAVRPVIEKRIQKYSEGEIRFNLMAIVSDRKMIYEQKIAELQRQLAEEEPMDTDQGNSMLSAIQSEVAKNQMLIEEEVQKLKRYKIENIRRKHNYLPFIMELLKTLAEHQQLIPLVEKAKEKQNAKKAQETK
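Material: human UCH37 enzyme supplied as purified proteasome complex. Measure: % inhibition of Ub-AMC cleavage fluorescence. Medium: pH 7.4 Tris-HCl (50 mM) with ovalbumin, ATP-MgCl2, DTT. Times: 30 min preincubation with enzyme, 25 min cleavage at room temperature. Detection: AMC fluorescence intensity at 355/460 nm.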
LANA-H2B inh: blocks KSHV LANA binding to histone H2A/H2B | Q9QR71 | cell-free LANA-H2A/H2B peptide, fluorescence polarization | inhibition, % (test concentration not listed) | actives 0.6% (n = 320,000) | AID 2629; in the data active = inhibition mostly above about 10%, no sharp cut-off; inactive = mostly below about 6.7%;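 note: stock transfer was 7.5 nL into about 10 µL; 0% = median of vehicle wells and 100% = median of positive control wells; one replicate is shown; the record names a cut of 25% in any replicate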
Ecoli growth: blocks Escherichia coli growth. OD600 absorbance (concentration not given with the values). OD600, 23 h; active compounds read low. actives 0.21% (n = 330,000);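 active = OD600 absorbance below the run mean of sample wells minus 3.6 SD, in any replicate, cut at about 0.56 in these data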;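 note: stock transfer was 300 nL into about 60 µL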
Starred values were filed as active, the others as inactive; ? = inconclusive; . = not tested or not shown; & = joins results of further samples.

SMILES	HNF4A DNA FP	Vif TR-FRET	A1 inh	Beta2AR agonist	UCH37 inh	LANA-H2B inh	Ecoli growth
O=C(CS(=O)c1ccc(Br)cc1)N1CCOCC1 (stereo not given)	1.6	-7%	1.0	-6	0.5	-1.8	0.69
O=C(CCCCCn1c(=S)[nH]c2cc3c(cc2c1=O)OCO3)NCCc1ccccc1	-1.8	-15%	-1.1	13	0.6	6.2	0.78
COc1ccc(C(=O)NC2CC2)cc1OC1CCN(Cc2ccccc2F)CC1	-1.7	-1%	-0.4	-1	-1.9	1.9	0.7
O=C(Nc1ccccc1)OCCOc1ccccc1	2.3	22%	0.1	-1	5.3	-7.6	0.72
COCCNC(=O)CN(C(=O)CCC(=O)Nc1cc(C)on1)c1ccc(C)cc1C	2.8	-8%	-0.4	-2	-0.6	3.9	0.68
CC(CCc1ccccc1)NS(=O)(=O)c1ccccc1Cl (stereo not given)	1.2	12%	0.1	-4	3.5	-2.2	0.71
CC(NC(=O)Nc1cccc([N+](=O)[O-])c1)c1ccc2c(c1)OCO2 (stereo not given)	-0.8	5%	-0.6	-8	2.2	-2.2	0.64
CC(C)CC(OC(=O)c1nsc(Cl)c1Cl)C(=O)NCC1CCCO1 (stereo not given)	-0.8	.	0.4	3	3.8	-1.6	0.71
CC(=O)N1CCN(c2cc(N3CCc4ccccc4C3)c(F)cc2[N+](=O)[O-])CC1	-1.3	9%	-0.2	-1	7.3	0.4	0.64
O=C(CN1CCN(Cc2ccccc2)CC1)Nc1ccc2c(c1)CCC2	-2.1	-3%	-0.1	6	1.8	-8.0	0.67
Cc1ccc(/C=C/C(=O)O)cc1S(=O)(=O)NCCO	-4.8	3%	-0.3	-1	.	4.3	0.71
O=C(CCC(=O)N/N=C/c1c[nH]c2ccccc12)NCc1ccccc1	0.5	-9%	0.2	2	.	1.3	.
Cc1cccc(Sc2c([N+](=O)[O-])ncn2C)n1	1.8	-2%	-0.1	2	8.5	0.2	0.69
CCC(C)n1nccc1NC(=O)C(C)OC(=O)c1cc2ccccc2[nH]1 (stereo not given)	-3.3	3%	0.0	2	-2.2	-1.3	0.69
CCOC(=O)c1ccc(COc2ccc(C(C)C)cc2)o1	-2.6	-9%	-0.8	0	4.7	-0.2	0.7
Cc1cccc(CN2CCC(C(=O)Nc3cccc(-c4cccc(F)c4)c3)CC2)n1	2.5	-1%	-0.6	10	0.6	-0.2	0.62
c1ccc(Cc2nn3c(C4COc5ccccc5O4)nnc3s2)cc1 (stereo not given)	-2.6	6%	-0.9	15	2.2	3.6	0.69
O=C(c1ccc(Cl)c(S(=O)(=O)NCc2ccco2)c1)N1CCN(c2ccccc2F)CC1	0.2	0%	1.8	-12	-1.1	-5.2	0.76
CCOC(=O)CSc1nc2ccc(NC(C)=O)cc2s1	1.5	-1%	0.0	24	1.8	-0.9	0.67
O=c1c2sc3nc(N4CCOCC4)c4c(c3c2ncn1CCc1ccccc1)CCCC4	-1.8	18%	0.1	-22	-13	-1.3	0.69
O=C(CNC(=O)C1CCCCC1)NCc1ccco1	2.3	14%	0.4	6	-0.2	1.5	0.66
Cc1ncc(CN2CCC(C(=O)Nc3ccc(Oc4cccnc4)cc3)CC2)cn1	-1.0	.	-0.3	-16	.	0.4	.
Cc1ccc(C2CC(c3ccccc3C)n3nc(N)nc3N2)cc1 (stereo not given)	-1.1	-5%&-3%	0.5	8	4.3	-0.8	0.72
Cc1cc(C)nc(SC(C)C(=O)N/N=C/c2cccs2)n1 (stereo not given)	-3.6	2%	0.9	-17	.	3.3	.
CCN(CCn1cccn1)C(=O)CCc1nnc(Cc2c[nH]c3ccccc23)o1	-2.1	.	-0.5	-5	-1.7	-5.0	0.71

(more compounds)
SMILES	HNF4A DNA FP	Vif TR-FRET	A1 inh	Beta2AR agonist	UCH37 inh	LANA-H2B inh	Ecoli growth
CC(=O)NCCOc1nc(N(C)C)nc(N2CCOCC2)n1	-3.9	3%	-0.2	0	-1.4	-0.6	0.68
O=C(COC(=O)CCC1CCCC1)Nc1ccccc1OC(F)F	3.5	-8%	1.7	8	-0.3	-3.3	0.64
CC(=O)/C(=N\Nc1ccc(Cl)cc1)Sc1nnc(-c2ccccc2)n1-c1ccccc1	-4.3	.	0.2	5	.	.	.
CCOc1cc(N2CCOCC2)c(OCC)cc1NC(=O)CN1CCc2ccccc2C1	-0.7	8%&1%	0.0	-4	-0.2	-2.2	0.69
CCc1ccc2[nH]cc(C(=O)OCCOC)c(=O)c2c1	3.4	2%	1.5	1	1.2	1.3	0.71
CC(C)(C)NC(=O)CC1C(=O)NCCN1Cc1c(F)cccc1Cl (stereo not given)	-0.1	0%	1.0	1	2.9	-6.1	0.69
CCCc1c(O)nc(SCCN(CC)CC)n(C(=O)c2ccccc2)c1=O	-1.4	-4%	-0.4	-3	3.0	2.2	0.73
CCOc1ccc(NS(=O)(=O)c2csc(C(N)=O)c2)cc1	2.6	-1%	0.3	-14	4.1	3.6	0.65
CCN=C1S/C(=C\c2cn(CC(=O)NCCOC)c3ccccc23)C(=O)N1CC	1.1	-6%	-1.0	-4	-98	2.8	0.73
COc1ccccc1/C=N/NC(=O)COCC(=O)N/N=C/c1ccccc1OC	2.4	.	0.3	-2	.	-1.8	.
CCOP(=O)(OCC)C(NC(=O)NS(=O)(=O)c1ccc(C)cc1)c1ccccc1 (stereo not given)	-3.1	.	1.4	7	1.3	-4.7	0.64
CCc1nc(N2CCN(C(C)=O)CC2)c(C#N)c2c1COC(C)(C)C2	-0.1	-7%	-0.3	11	-153	2.3	0.64
CCOC(=O)N1CCN(C(=O)C2CCN(c3nnc(-n4cccc4)s3)CC2)CC1	-0.2	-6%	-0.7	-4	6.4	-4.1	0.76
COC(=O)c1sccc1NC(=O)c1cc(OC)c(OC)c(OC)c1	-0.4	-30%	-0.2	1	-14	-1.1	0.72
Cc1cc(=O)oc2cc(OCC(=O)N3CC(=O)Nc4ccccc43)c(Cl)cc12	0.2	-29%	1.6	9	-54	-1.9	0.67
O=C(COC(=O)C1(c2ccc(Cl)cc2)CCCC1)NC1CCS(=O)(=O)C1 (stereo not given)	1.5	-13%	0.8	4	9.2	-0.6	0.74
Cn1c(-c2ccccc2)cccc1=O	-0.4	?	0.3	-13	1.3	3.2	0.73
NC(=O)C1CCN(C(=O)Nc2csc3ccccc23)CC1	3.1	0%	0.0	12	4.3	3.8	0.68
COCCNC(=O)CCCC(=O)NCCOC	5.0	.	-0.2	8	0.8	0.3	0.7
N/C(Cn1cncn1)=N\OC(=O)c1ccc(Cl)cc1	-3.6	-2%	0.9	-8	2.4	13	0.72
CCOC(=O)C(C(=O)OCC)C1OC(=O)c2cc3c(cc21)C(=O)OC3C(C(=O)OCC)C(=O)OCC (stereo not given)	-0.8	.	1.0	3	2.4	1.9	0.67
CN1C=C/C(=C\c2cc[n+](C)c3ccccc23)c2ccccc21	5.3	28%	.	3	3.8	.	0.7
O=C(NC(c1ccccc1)c1ccccc1)c1cccc(S(=O)(=O)NCc2ccccc2)c1	4.0	25%	2.0	1	0.9	-1.7	0.76
S=c1[nH]c(-c2ccccc2)cn1/N=C/c1ccc(Br)cc1	-0.6	1%	0.3	3	.	0.0	.
COc1ccc(S(=O)(=O)N2CCC(C(=O)N[C@@H](C)C(=O)N3CCCCCC3)CC2)cc1	9.6	-2%	0.9	-3	3.5	1.5	0.65

(more compounds)
SMILES	HNF4A DNA FP	Vif TR-FRET	A1 inh	Beta2AR agonist	UCH37 inh	LANA-H2B inh	Ecoli growth
CC(C)CSc1nc2ccccc2[nH]1	4.3	2%	0.5	-13	0.0	3.2	0.65
CC(=O)c1cccc(NC(=O)CC(C)n2ccnc2)c1 (stereo not given)	-1.3	-8%	1.0	-4	0.0	1.6	0.69
CCN(CC)CCNS(=O)(=O)c1ccc(C(=O)NN)cc1	2.0	-8%	0.2	-12	3.4	0.3	0.69
CCNC(=O)N1c2ccc(OCC)cc2C(C)=CC1(C)C	3.2	?	0.2	-3	-27	3.8	0.73
CCS(=O)(=O)c1nc(S(=O)(=O)c2ccc(C)cc2)c(NCCCN2CCCC2=O)s1	-1.9	.	0.6	0	2.9	-2.2	0.64
CC(=O)N1CCC(Nc2ccc(C)cc2)CC1	4.8	22%	-0.1	2	1.6	1.3	0.77
COc1ccc(C2CC(C)(c3ccc(OC)cc3OC)Nc3ccccc3N2)c(OC)c1 (stereo not given)	-3.9	-7%	-0.2	1	0.8	7.7	0.66
O=C(O)c1cn(C2CC2)c2cc(N3CCN(S(=O)(=O)c4ccc5c(c4)OCCO5)CC3)c(F)cc2c1=O	3.2	-11%	0.0	11	-346	2.4	0.082*
CN(CC(=O)Oc1ccc(-c2nnco2)cc1)S(=O)(=O)c1ccc(F)cc1	-3.2	-13%	0.5	-2	1.9	3.2	0.68
COc1cc(NS(=O)(=O)c2ccc(NC(=S)NC(=O)c3ccc(F)cc3)cc2)nc(OC)n1	-0.3	.	0.1	-7	2.2	0.1	0.64
COc1cc(NC(=O)c2ccc(C)cc2)c(OC)cc1NC(=O)CN1CCOCC1	0.7	11%	0.5	-12	-1.7	0.5	0.73
Cc1ccc(S(=O)(=O)N2CCC(C(=O)NC3CC(C)(C)NC(C)(C)C3)CC2)cc1	0.1	.	0.3	-1	.	1.1	.
O=C(CSCC(=O)OCn1nnc2ccccc2c1=O)Nc1ccc(Cl)cc1	-0.8	-4%	0.5	3	4.6	0.1	0.65
C/C(CCC(C)C)=N\NC(=S)NCc1ccccc1	-0.9	-3%	0.7	-22	.	0.3	.
CN(C)N=Nc1nc2c([nH]1)c(=O)n(C)c(=O)n2C	-2.3	4%	0.3	-3	17	-1.6	0.71
CC(C#Cc1ccc2c(c1)COc1c3ccccc3nn1-2)OC(C)(C)C (stereo not given)	5.3	.	-0.7	5	4.0	-3.0	0.68
Cc1cc(Cl)ccc1N(CC(=O)NCc1ccccc1)S(C)(=O)=O	2.9	.	1.6	4	-1.3	0.8	0.67
CCCCn1nnc(NC(=O)c2cc3ccccc3o2)n1	-0.5	-8%	-1.9	-1	-1.8	2.2	0.72
COc1ccc(S(=O)(=O)N2CCOCC2)cc1NC(=O)c1cccc(Cl)c1	3.8	-8%	2.2	1	3.9	0.2	0.71
CCN1CCN(C(=O)CCc2nnc(CCc3ccccc3OC)o2)[C@@H](C)C1=O	-2.8	-3%	-0.1	-1	3.0	4.8	0.66
COc1ccc(CCNC(=S)NC(=O)c2c(-c3ccccc3Cl)noc2C)cc1OC	-2.5	-4%	0.6	2	5.4	-3.9	0.63

Entries of single compounds as entered above. Screens in order: HNF4A DNA FP	Vif TR-FRET	A1 inh	Beta2AR agonist	UCH37 inh	LANA-H2B inh	Ecoli growth
O=C(O)c1cn(C2CC2)c2cc(N3CCN(S(=O)(=O)c4ccc5c(c4)OCCO5)CC3)c(F)cc2c1=O across the screens: 3.2	-11%	0.0	11	-346	2.4	0.082*
CCc1nc(N2CCN(C(C)=O)CC2)c(C#N)c2c1COC(C)(C)C2 across the screens: -0.1	-7%	-0.3	11	-153	2.3	0.64
O=C(CNC(=O)C1CCCCC1)NCc1ccco1 across the screens: 2.3	14%	0.4	6	-0.2	1.5	0.66
Cc1cc(=O)oc2cc(OCC(=O)N3CC(=O)Nc4ccccc43)c(Cl)cc12 across the screens: 0.2	-29%	1.6	9	-54	-1.9	0.67
Cc1cccc(CN2CCC(C(=O)Nc3cccc(-c4cccc(F)c4)c3)CC2)n1 across the screens: 2.5	-1%	-0.6	10	0.6	-0.2	0.62

Screening results deposited in PubChem by several laboratories.
